Screening data: PubChem, Southern Research Specialized Biocontainment Screening Center
Mtb bLac sens: beta-lactam sensitization of Mtb H37Rv | M. tuberculosis H37Rv growth with meropenem, percent inhibition; hits of this screen are not shown here | inhibition, % at 25 µM | hit rate 0.27% among 330,000;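 active = about 74% or more and at least 40 points above the plate without the antibiotic, then above 30% in a dose series; inconclusive = first-round hits that could not be retested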;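 also: growth measured after seven days incubation then overnight dye step; 0% = bacteria only wells and 100% = bacteria with antibiotic; twin plates without the antibiotic show which effects depend on it; some results filed as inactive read as strong as hits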
* = called active by the depositor; ? = inconclusive.

SMILES	Mtb bLac sens
C[C@@]12C(=O)Nc3ccccc3C(=O)N1[C@H]1c3cc(Br)ccc3OC[C@@H]1[C@@H]2c1ccccc1	97.7
CC1CN(C(=O)COC(=O)Cc2c(Cl)cccc2Cl)CC(C)O1 (stereo not drawn)	-0.7
COCc1ccc(-c2ccc3c(c2)c(C#Cc2ccsc2)c(-c2cc(OC)cc(OC)c2)n3C)cc1	-4.8
CC[N+](C)(CC)CCOC(=O)C1c2ccccc2Oc2ccccc21	3.9
O=C(CN1C(=O)NC2(CCc3ccccc32)C1=O)NCc1cccc(C(F)(F)F)c1 (stereo not drawn)	-7.6
CC(=O)C[C@@H](O)CC(=O)[C@@H]1OC(=O)CCCCCCCc2ccccc21	7.5
Cc1ccc(/C=C/C(=O)OCC(=O)NCCc2ccc(S(N)(=O)=O)cc2)o1	-4.0
COc1cc2ccccc2cc1C(=O)NC1CCC(C)CC1 (stereo not drawn)	74.0
CCCN(CC(=O)Nc1cc(C)on1)CC(=O)Nc1ccccc1C	-4.4
CCN(CC)S(=O)(=O)c1ccc(N2CC(C(=O)NCCc3ccc(Cl)cc3)CC2=O)cc1 (stereo not drawn)	-4.2
Cc1ccc(CN2C(=O)C(=O)c3cc(C)ccc32)cc1	5.7
CC(=O)Nc1cccc(O)c1	-2.1
O=C(CSc1nnc2ccccn12)NC(=O)c1ccccc1	0.7
O=C(COC(=O)C1CC2CCCC(C1)C2=O)Nc1ccc(F)c(Cl)c1 (stereo not drawn)	-4.6
CCc1ccc(Nc2nnc(SCC(=O)NC(=O)CN3CCCC3=O)s2)cc1	12.2
Cc1cccc(N2CCN(C(=O)c3cccc(S(=O)(=O)N4CCCCC4)c3)CC2)c1C	3.8
O=C(CSc1ccc2ccccc2n1)NCCCN1CCCC1=O	-3.9
C=CC[C@@H](CC(=O)N[C@@H](CO)Cc1ccccc1)C(=O)N[C@H](COC(=O)[C@@H](CC=C)CC(=O)OC(C)(C)C)Cc1ccccc1	-2.4
C=CC[C@@H](CC(=O)NCCO)C(=O)N[C@@H](COC(=O)[C@@H](CC=C)Cc1ccc(F)cc1)Cc1ccccc1	-2.3
COC(=O)C[C@H](NC(=O)Cn1cnc2c(SC)nc(N)nc21)C(=O)OC	-11.9
Cc1cccc(C)c1NC(=O)CNC(=O)C(C)N1CCCCC1 (stereo not drawn)	2.6
COc1cccc(Oc2ccc(C(F)(F)F)cc2NC(=O)CN2C(=O)NC3(CCCC3)C2=O)c1	-0.2
CCOC(=O)c1sc(N)c(C#N)c1COC(=O)C1=COCCO1	8.6
CC[C@]12c3[nH]c4ccccc4c3CCN1C(=O)C(CC(=O)NCCCn1ccnc1)C[C@@H]2C(=O)N1CCN(C(=O)C2CC2)CC1 (stereo partly drawn)	-2.1
O=C(CCc1nc2ccccc2c(=O)[nH]1)Nc1cc(C(F)(F)F)ccc1N1CCCC1	-2.1
COc1ccc(/[N+]([O-])=C/c2ccoc2)cc1	-3.2
CC(=O)O[C@@]1(C)C[C@@H](O)[C@]2(O)C=CO[C@@H](O[C@@H]3O[C@H](CO)[C@@H](O)[C@H](O)[C@H]3O)[C@@H]21	-9.9
O=C(OCC(=O)N1CCCCC1)c1ccc(OC(F)(F)F)cc1	1.4
CCN(C[C@H]1N[C@@](C)(C(=O)OC)[C@H]2C(=O)N(Cc3ccccc3)C(=O)[C@@H]12)C(=O)Nc1ccccc1	-9.3
CCC(CC)NC(=O)C1CCN(c2ccc(S(=O)(=O)N3CCOCC3)cc2[N+](=O)[O-])CC1	-4.7
CCN(C[C@H]1N[C@@](Cc2ccccc2)(C(=O)OC)[C@H]2C(=O)N(Cc3ccccc3)C(=O)[C@@H]12)S(=O)(=O)c1ccc(OC(F)(F)F)cc1	-4.9
COc1cc(NC(=O)c2ccccc2)c(OC)cc1NC(=O)CN1C(=O)NC2(CCCCC2)C1=O	-3.1
COc1ccc(-c2c(C#Cc3ccsc3)c3cc(-c4ccc(CN5CCOCC5)cc4)ccc3n2C)cc1	-6.2
O=C(NNS(=O)(=O)c1ccccc1Cl)C1COc2ccccc2O1 (stereo not drawn)	0.7
N#Cc1ccc(OCC(=O)Nc2nc(-c3cccnc3)cs2)cc1	-9.0
CCOc1ccc(N2C(=O)c3ccccc3NC2(C)CC)cc1 (stereo not drawn)	-7.9
COc1ccc(Cl)cc1NC(=O)C1CCN(C(=O)Nc2ccccc2)CC1	-7.6
C=CC[C@H](CC(=O)N(CCO)Cc1ccccc1)C(=O)N[C@H](COC(=O)[C@H](CC=C)CC(=O)OC(C)(C)C)Cc1ccccc1	-10.4
O=C(NCc1ccc(Cl)cc1)N1CCc2ccccc2C1	0.0
CC1CCCCC12NC(=O)N(CC(=O)N1CCN(Cc3ccc(C#N)cc3)CC1)C2=O (stereo not drawn)	3.5
CCOc1ccccc1-n1nnnc1SCC(=O)NCC1(N2CCOCC2)CCCCC1	0.8
Cc1cc(S(=O)(=O)NCc2cccnc2)ccc1F	-10.8
O=C(NC1CCCC1)C1CCN(C(=O)c2cc(Cl)ccc2Cl)CC1	-0.5
C[C@H](CO)N1C[C@H](C)[C@@H](CN(C)Cc2ccc(C(=O)O)cc2)Oc2c(NC(=O)Cc3ccccc3)cccc2C1=O	8.4
Cc1ccc(NC(=O)NC(=O)CN2CCN(c3ccc(O)cc3)CC2)c(C)c1	-2.0
O=[N+]([O-])c1ccccc1S(=O)(=O)Nc1ccn(Cc2c(F)cccc2Cl)n1	?
C=CCn1c(SCC(=O)Nc2cccc(S(N)(=O)=O)c2)nnc1C1CCCCC1	-3.2
CCC(c1nnc(SC(C)C(=O)NC2CC2)n1-c1ccc(OC)cc1)N(C)C (stereo not drawn)	5.5
NC(=O)C1CCN(C(=O)c2ccc(Cl)c(S(=O)(=O)NCc3ccco3)c2)CC1	-3.9
Cc1cc(C)cc(NC(=S)N2CCC(NC(=O)c3ccco3)CC2)c1	-15.1
Cc1cccc(C)c1NC(=O)CNC(=O)CN1C(=O)NC2(CCc3ccccc32)C1=O (stereo not drawn)	-6.8
COC(=O)c1c(-c2ccc(OC)cc2)sc2ccc(N3CCOCC3)cc12	10.4
O=C(/C=C/c1ccc([N+](=O)[O-])cc1)N1CCN(S(=O)(=O)c2ccccc2)CC1	-4.4
CC1Cc2ccccc2N1C(=O)C(C)n1cc(C(F)(F)F)cc(Cl)c1=O (stereo not drawn)	2.6
COc1cc(C(C)=O)ccc1OCC(=O)Nc1ccc2nc(C)sc2c1	3.7
CCOC(=O)c1cccc(NC(=O)COc2nsnc2N2CCOCC2)c1	1.6
Cc1cc(OCC(=O)N2CCC(C(=O)O)CC2)c2c3c(c(=O)oc2c1)CCCC3	-0.6
CCCC1(c2ccccc2)NC(=O)N(CC(=O)NCC2COc3ccccc3O2)C1=O (stereo not drawn)	-4.7
CN(CC(=O)Nc1ccccc1C(F)(F)F)C(=O)c1ccc2c(=O)n3c(nc2c1)CCC3	-6.7
O=S(=O)(c1cccc(-c2n[nH]c(=S)n2-c2ccc(OC(F)(F)F)cc2)c1)N1CCOCC1	-5.4

Next part
SMILES	Mtb bLac sens
COc1cc2c(cc1OC)C(c1cccc(F)c1)CC(=O)N2 (stereo not drawn)	-15.6
CCOC(=O)C1=C(COC(=O)/C=C/c2ccc([N+](=O)[O-])cc2)NC(=O)NC1C (stereo not drawn)	1.1
CC(C)(C)NC(=O)NC(=O)CSc1ccc(S(=O)(=O)N2CCOCC2)cn1	-5.8
Cc1ccc(S(=O)(=O)N2CCN(C(=O)C(C)Cn3cncn3)CC2)cc1C (stereo not drawn)	-4.3
CC1CN(S(=O)(=O)c2cccc(C(=O)N(C)C3CCN(C)CC3)c2)CC(C)O1 (stereo not drawn)	2.0
Cc1cc2c(NCc3ccccc3)ncnc2s1	-5.7
COc1cccc(-c2sc3ccc(OC)cc3c2C#CCCO)c1	89.1
Cc1cc(C(=O)NNC(=O)CN2C(=O)NC3(CCCCC3)C2=O)c(C)o1	-3.1
CCN(C(=O)CSc1n[nH]c(N)n1)C1CCCCC1	3.1
NC(=O)C1CCN(C(=O)c2cc(Cl)c3c(c2)OCCO3)CC1	-5.8
CC(C)CC(=O)Nc1ccc(C(=O)CN2CCN(c3ccc(O)cc3)CC2)cc1	-6.9
O=C(COC(=O)/C=C/c1ccc(Cl)cc1)NC1CC1	2.6
COc1cc(/C=C/C(=O)O)cc(S(=O)(=O)Nc2ccccc2C(=O)NCc2ccco2)c1OC	-4.7
COc1ccc(C(=O)Nc2nnc(C)s2)cc1S(=O)(=O)N1CCOCC1	0.0
COC(=O)C1=C(c2ccc(F)cc2F)C[C@@H]2CC[C@H]1N2C(=O)NCc1ccc2c(c1)OCO2	1.1
Cc1cc(C(=O)COC(=O)c2cccc(O)c2)c(C)n1C1CC1	-8.6
CCOC(=O)CCC(=O)Nc1cc(S(=O)(=O)N2CCOCC2)ccc1N1CCCCC1	2.4
CCOc1ccc(C(=O)N2CCN(CCc3ccccc3)CC2)cc1OCC	-13.0
COc1ccc(C2c3c(c(C)c(C)oc3=O)Oc3c(C)c(C)oc(=O)c32)cc1	-4.2
COc1cc(CNS(=O)(=O)CCl)cc(OC)c1OC	9.7
COc1ccccc1NC(=O)C(C)OC(=O)CSCC(=O)Nc1cc(C)on1 (stereo not drawn)	-4.8
O=C(OCc1c(-c2ccccc2)ncc2ccccc12)c1ccco1	1.4
COc1ccccc1C(=O)OCc1c(-c2ccccc2)ncc2ccccc12	1.2
O=C(OCc1cc(=O)n2ccsc2n1)c1ccc(O)cc1O	-4.7
COc1cccc(NC(=O)CN(C)C(=O)CN2C(=O)NC(C)(c3ccc(C)cc3)C2=O)c1 (stereo not drawn)	5.8
CC(C)(C)CNC(=O)[C@]1(C)CCC[C@@]2(C)C3CC[C@@]4(C)C[C@]3(CCC21)CC4=O (stereo partly drawn)	0.2
N#CC1(NC(=O)COc2cc(F)ccc2[N+](=O)[O-])CCCCC1	-2.1
O=C(NCc1ccccn1)c1cc(S(=O)(=O)N2CCCCC2)ccc1Cl	-1.9
COc1ccc(OC)c(C(C)NS(=O)(=O)c2cccs2)c1 (stereo not drawn)	1.4
CC[C@@]1(C(=O)OC)N[C@H](CN(C)C(=O)c2ccc(C)cc2)[C@@H]2C(=O)N(C)C(=O)[C@@H]21	6.0
C=CC[C@H](CC(=O)N(CCO)Cc1ccccc1)C(=O)N[C@@H](COC(=O)[C@@H](CC=C)Cc1ccc(F)cc1)Cc1c[nH]c2ccccc12	-1.0
CC1CCN(S(=O)(=O)c2ccc(NC(=O)[C@@H]3CCCN3C(=O)c3cccs3)cc2)CC1	-6.2
CN(C(=S)NC(=O)C1CC1)c1ccc(O)cc1	1.3
O=C1N(c2ccccc2C(F)(F)F)OC1(Cc1ccccc1)c1ccccc1 (stereo not drawn)	27.9
CCc1cn(C2CC(O)C(CO)O2)c(=O)[nH]c1=O (stereo not drawn)	-3.1
Cc1cc(Cl)c(C)c(S(=O)(=O)Oc2ccccc2NC(=O)CCC(=O)O)c1Cl	15.1
COc1ccc(CCNC(=O)/C=C/c2ccco2)cc1	-4.3
O=C(OCC(=O)C12CC3CC(CC(C3)C1)C2)c1ccc(O)cc1	2.5
COc1ccc(C(=O)NCC(=O)N2CCN(c3ncccn3)CC2)cc1OC	-4.3
COc1ccc(NC(=O)CN(C)C(=O)c2oc3c(ccc4ccccc43)c2C)cc1	-3.9
COc1ccc(C(CNC(=O)COc2c(C)cc(C)cc2C)N2CCOCC2)cc1 (stereo not drawn)	0.2
O=C(CN1C(=O)NC(c2ccccc2)(c2ccccc2)C1=O)NCC(=O)Nc1ccc(F)cc1	-1.3
Cc1ccc(Cl)c(OCC(=O)N2CCc3ccccc3C2)c1	-5.3
Cc1ccc(OCC(=O)N2CCN(S(=O)(=O)c3ccc(Cl)s3)CC2)cc1C	-1.1
CC(NC(=O)c1ccco1)C12CC3CC(CC(C3)C1)C2 (stereo not drawn)	4.6
Cc1nn(CC(C)C(=O)N2CCN(S(=O)(=O)c3ccc(Cl)cc3)CC2)c(C)c1C (stereo not drawn)	-0.1
COC(=O)C1=C(c2ccc3ccccc3c2)C[C@@H]2CC[C@H]1N2C(=O)N1CCC(C)CC1	6.5
Cc1cccc(C(=O)NNC(=O)C2CC2)c1	-6.1
C=CC1=C(C(=O)O)N2C(=O)[C@@H](NC(=O)/C(=N\OCC(=O)O)c3csc(N)n3)[C@H]2SC1	-9.6
Cn1c(N)c(C(=O)CSc2nnc(N)s2)c(=O)n(C)c1=O	1.6
N#Cc1nc(Nc2cccc(Cl)c2)c2ncn(C3CCCC3)c2n1	8.4
O=C1CN(C(=O)c2cccc([N+](=O)[O-])c2)CC(=O)N1	-4.2

Not all compounds are listed; rates above refer to the full screens.
